# VACV Venus inh: qHTS for Stage-Specific Inhibitors of Vaccinia Orthopoxvirus: Venus Reporter Primary qHTS. Vaccinia virus Venus reporter expression, fluorescence. Potency, µM (titrated, usually from 36.5 µM), for the others: top-dose activity change, negative = inhibition, usual class: inhibitors. hit rate 0.46% among 330,000. AID 720580, 2013; active means well fitted inhibition curve with a large enough effect; inconclusive means small, poorly fitted or top-dose-only effect; inactive means no such curve, though single readings can be large or run the other way; tested in A549 cells; also: nearly all actives have a fitted effect of over 30% in size; inactives centre near -10
# Vaccinia mCherry: qHTS for Stage-Specific Inhibitors of Vaccinia Orthopoxvirus: mCherry Reporter Primary qHTS. Vaccinia virus mCherry reporter infection, fluorescence; about a quarter of the inactives have no number. Potency, µM (highest dose often 36.5 µM), inactives show at the highest dose activity change, negative = inhibition, most hits filed as inhibitors. hit rate 0.63% among 310,000. AID 720579, 2013; active = well fitted inhibition curve with a large enough effect; inconclusive = small, poorly fitted or top-dose-only effect; inactive = no such curve, though single readings can be large or run the other way; tested in A549 cells; also: nearly all actives have a fitted effect of over 35% in size; inactives centre near -10
# Active calls of the source: *; i = inactive; ? = inconclusive; . = not tested or not shown; & = joins results of further samples. % is scaled to controls: 0 for no effect and ±100 for the full control effect; potency is read from the fitted curve at half-maximal effect.
No.	SMILES	VACV Venus inh	Vaccinia mCherry
1	Cc1cc(C)cc(CN2CCc3nnc(C(NS(C)(=O)=O)C(C)C)n3CC2)c1 (stereo not given)	-1%	-11%
2	NC(=O)CC(NC(=O)Cc1cccc2ccccc12)c1ccc(NC2CCCC2)c([N+](=O)[O-])c1 (stereo not given)	-4%	i
3	O=S(=O)(c1cccs1)N1CN(CC2CCCO2)c2nc3ccccc3nc21 (stereo not given)	-3%	-2%
4	Cc1nnc(C)n1/N=C/c1ccccn1	0%	.
5	CCOc1ccc(S(=O)(=O)N2CCN(c3ccccc3)CC2)cc1C(N)=O	-1%	-12%
6	COc1cc2c(cc1OC)CN(C(=O)CSc1nnc3scc(-c4ccccc4)n13)CC2	-12%	-11%
7	Cc1c(NC(=O)c2ccc([N+](=O)[O-])o2)cccc1-c1nc2ncccc2o1	?	?
8	COc1cc(C(=O)N2CCC(n3c(C)nc4cc(F)ccc43)CC2)cc(OC)c1OC	-4%	-4%
9	COc1cccc(NC(=O)C2(C)CCN2C(=O)CC2CC2)c1 (stereo not given)	8%	i
10	O=C(NCCc1ccccc1)c1cnc2sc(N3CCOCC3)nn2c1=O	-10%	-19%
11	O=C(Nc1cccc(C(F)(F)F)c1)c1cccnc1N1CCCC1	-5%	.
12	CCOc1ccc(CC(=O)Nc2c(C(N)=O)oc3ccccc23)cc1OCC	-5%	-23%
13	CN(c1ccccc1)S(=O)(=O)c1ccc(C(=O)N2CCCC2)cc1	-6%	-13%
14	Cc1ccc2nc(SCC(=O)N3CCOc4ccc(CN5C[C@@H](C)O[C@@H](C)C5)cc4C3)[nH]c2c1	-3%	-13%
15	CC(=O)c1sc2nc(CSc3nncn3C)[nH]c(=O)c2c1C	-1%	2%
16	CC1(CCO)C(=O)NC(=S)NC1=O	-2%	-12%
17	Cc1nc(Cl)c(C(=O)NC(=O)NCc2ccccc2)c(C)c1Cl	-12%	-27%
18	CC1=C(OC(=O)c2ccccc2)C(C)(C)C(c2ccccc2)OC1=O (stereo not given)	-35%	.
19	CCn1c(=O)c(C(=O)NCc2ccccn2)c(O)c2ccccc21	?	.
20	CC(=O)c1ccc(NC(=S)NC2CCCC(C)C2C)cc1 (stereo not given)	-9%	-9%
21	CC(Sc1nc(-c2ccc(F)cc2)cs1)C(=O)N1c2ccccc2CC1C (stereo not given)	-8%	-2%
22	O=C(CO)N/N=C/c1c2ccccc2cc2ccccc12	-5%	6%
23	COc1ccc(NS(=O)(=O)c2ccc(N3CCN(CCO)CC3)c([N+](=O)[O-])c2)cc1	-17%	-28%
24	CCOC(=O)C1(CCCc2ccccc2)CCN(C(=O)CCCn2cncn2)CC1	-10%	-5%
25	O=C(Nc1ccc(F)cc1)N1CCN2C(=O)c3ccccc3C12c1ccccc1 (stereo not given)	-18%	i
26	CCOC(=O)C1=CC[C@@H](c2ccccc2)N(S(=O)(=O)c2ccc(C)cc2)[C@H]1C	-2%	i
27	C=C(C)CSc1[nH]c(=O)cc(C)c1C#N	5%	-25%
28	COCCn1c(C)cc(O)c(C(c2ccc(Cl)cc2)N2CCCCC2)c1=O (stereo not given)	-13%	-12%
29	Cc1cc(C)c(NC(=O)CSc2nc3ccc(N4C(=O)c5ccccc5C4=O)cc3s2)c(C)c1	-2%	4%
30	COC(=O)c1cc2sccc2n1Cc1ccc(F)cc1	-15%	-12%
31	Cc1ccc(NC(=O)c2cc(N3C(=O)C=CC3=O)ccc2N2CCOCC2)cc1Cl	-2%	-14%
32	COC(=O)C1OC(OC2CC[C@]3(C)C(CC[C@@]4(C)[C@@H]3CC=C3[C@@H]5CC(C)(C)CC[C@]5(C(=O)OC5OC(CO)C(O)C(O)C5O)CC[C@]34C)C2(C)C)C(O)C(O)C1O[C@H]1OCC(O)C(O)C1O (stereo not given in full)	-24%	-9%
33	O=C(CCSc1ccccc1)NCCN1CCOCC1	1%	i
34	CCOc1ccc(N(CC(=O)NC(C)(C)C)S(=O)(=O)c2c(C)noc2C)cc1	-4%	4%
35	CCC(NC(=O)c1ccccc1Br)c1ccccc1 (stereo not given)	-15%	-13%
36	Cn1c(=O)cc(Nc2ccccc2)[nH]c1=O	-7%	-16%
37	CCc1ccc(C2CC3C(CN2S(=O)(=O)c2ccc(C)cc2)[C@@H](O)C[C@@H](c2ccc(CC)cc2)N3S(=O)(=O)c2ccc(C)cc2)cc1 (stereo not given in full)	-16%	-15%
38	CCC(=O)OC1=CN(Cc2ccccc2)S(=O)(=O)c2ccccc21	-6%	-1%
39	COc1cc(NC(=O)OCc2ccccc2)c2ncccc2c1	-21%	-28%
40	C#C[C@]1(O)CCC2C3C(CC[C@@]21C)[C@@]1(C)CC[C@@H](O)CC1=C[C@H]3O (stereo not given in full)	-12%	i
41	Nc1cccc(-c2nc3ncccc3o2)c1	-1%	-6%
42	COc1ccccc1S(=O)(=O)Nc1cc(C)nn1-c1ccc(C)cc1	3%	i
43	Cc1ccccc1N1C(=O)N(c2cccc(C(F)(F)F)c2)C2CS(=O)(=O)CC21 (stereo not given)	-7%	-10%
44	Cc1oc(-c2ccccc2F)nc1CS(=O)(=O)CC(=O)N1CCOCC1	-14%	i
45	O=C(COc1ccccc1-c1nc(-c2ccccc2)no1)Nc1ccc([N+](=O)[O-])cc1	3%	-5%
46	COc1ccc(-n2nnnc2C(c2ccccc2OC(F)(F)F)N2CCC3(CC2)C(=O)NCN3c2ccccc2)cc1 (stereo not given)	-16%	-1%
47	CCCCCN(C(=O)CCC(=O)OCCOc1ccc(OCC)cc1)c1c(N)n(CCCC)c(=O)[nH]c1=O	-9%	-25%
48	COc1ccccc1NC(=O)N(C)C[C@@H]1OCc2cnnn2CCCC(=O)N([C@@H](C)CO)C[C@@H]1C	-4%	-5%
49	Cc1ccc(C=Nc2ccc(N(C)C)cc2)o1	-3%	-11%
50	Cc1cc(C)cc(NC(=O)N2CCN(C(=O)c3nsc4ccccc34)CC2)c1	-7%	-6%
51	COc1cccc(-c2nnc(NC(=O)c3ccc(S(=O)(=O)N4CCOCC4)cc3)o2)c1	0%	-9%
52	CC(C)c1ccc(OCC(=O)Nc2ccccc2C(=O)N2CCOCC2)cc1	-4%	-8%
53	CN(C(=O)c1ccc(NC(=O)Cc2ccc(NC(=O)C3CCN(C(=O)C4CC4)CC3)cc2)cc1)C1CCCC1	-11%	-7%
54	Nc1[nH]c(=S)[nH]c(=O)c1-c1ccccc1	-3%	i
55	COC(=O)c1ccccc1C(=O)N(c1ccccc1)c1ccccc1	-15%	-17%
56	Cc1cc(C)n2c3c(c(C#N)c2n1)CC(C)(C)OC3	-1%	5%
57	NC(=O)c1nsc(C(=O)N(CC(=O)NCc2ccc3c(c2)OCO3)C2CCCCC2)c1N	-17%	.
58	COc1ccc(C2CC(=O)c3c(O)cc(O)cc3O2)cc1O (stereo not given)	-5%&9%	14%&-4%
59	COc1ccccc1C1OCC(C)([N+](=O)[O-])CO1 (stereo not given)	8%	i
60	O=C1CCCc2cc(S(=O)(=O)NCC3CCC(C(=O)Nc4ccc(Cl)cc4)CC3)ccc2N1 (stereo not given)	-15%	-21%

# (next part)
No.	SMILES	VACV Venus inh	Vaccinia mCherry
61	COc1cc(OC)cc(C(=O)NNC(=O)c2cc(=O)[nH]c3ccccc23)c1	-2%	-8%
62	NC(=O)CC(NC(=O)Cc1cccc2ccccc12)c1ccc(NC2CCC2)c([N+](=O)[O-])c1 (stereo not given)	-9%	-13%
63	Cc1c(NC(=O)/C(C#N)=C/c2ccc(-c3ccc(Cl)cc3)o2)c(=O)n(-c2ccccc2)n1C	?	?
64	CCN(C(=O)COC(=O)CSc1cc(C)c2ccccc2n1)c1ccccc1	-2%	-16%
65	C/C(=N\NC(=S)NCc1ccccc1)c1ccc(Cl)s1	-19%	-19%
66	COc1cccc(NC(=O)c2cc(CN3C(=O)c4ccccc4C3=O)ccc2OC)c1	-20%	-22%
67	O=C(N/N=C/c1ccc[nH]1)c1ccc(COc2cccc3cccnc23)cc1	?	1.6µM*
68	O=C(NC1CC1)c1ccc2nc([C@@H]3O[C@H](CO)[C@H](O)[C@H](O)[C@H]3O)[nH]c2c1	3%	2%
69	Cc1nnc2c(Oc3ccccc3)nc3ccccc3n12	-9%	.
70	N#Cc1c(NC(=O)CSc2nnc(-c3ccco3)n2-c2ccccc2)sc2c1CCC2	-26%	.
71	Cc1ccccc1-n1c(/C=C/c2ccc(O)cc2)nc2ccccc2c1=O	-8%	-29%
72	Clc1ccccc1Nc1ncnc2c1nnn2Cc1ccccc1	-14%	?
73	C=CCc1ccccc1OCC(O)CN1C(=O)c2ccccc2C1=O (stereo not given)	-6%	-9%
74	CC(CN1CCC(n2nccc2NC(=O)C2CCCC2)CC1)c1ccccc1 (stereo not given)	-5%	i
75	CCOc1ccc(C(C)=O)cc1CSc1nnc(N)s1	-6%	i
76	Cc1ccc(SCC(=O)NNC(=O)c2ccc(S(C)(=O)=O)cc2)cc1	-2%	-7%
77	Clc1ccc(-c2nc3ncccn3c2Nc2ccc3c(c2)OCO3)cc1	-1%	0%
78	O=C1CN(S(=O)(=O)c2ccc([N+](=O)[O-])cc2)CC(=O)N1	-5%	-14%
79	Cc1ccc(CNC(=O)c2ccc(CSCc3ccccc3C)o2)cc1	-11%	2%
80	COc1ccc(Cl)cc1NC(=O)C1CC(=O)N(c2ccc(F)cc2)C1 (stereo not given)	-18%	.
81	Cc1ccc(OCc2nnc(SCC(=O)N3c4ccccc4Sc4ccc(Cl)cc43)o2)cc1	-14%	-9%
82	COc1cccc(C2C(C(=O)/C=C/c3ccco3)=C(O)C(=O)N2CCN2CCOCC2)c1 (stereo not given)	3%	i
83	O=C(CSc1nc(-c2ccco2)cc(C(F)(F)F)n1)Nc1ccc2c(c1)OCO2	?	?
84	Cc1sc2nc3c(SC(C)C(=O)O)cc(C(=O)c4ccccc4O)cn3c(=O)c2c1C (stereo not given)	-5%	0%
85	COCCNC(=O)CSc1nnc(-c2ccccc2F)n1Cc1ccccc1	-27%	?
86	COc1cccc(-c2nnc(NC(=O)C3CCCCC3)o2)c1	-2%	-8%
87	Nc1ncnc2c1ncn2C1CCC(CO)C(O)C1 (stereo not given)	-4%	-13%
88	C[C@@H](c1ccccc1)N1C[C@H](COCc2ccccc2)Oc2cc(N3CCC[C@@H]3CO)ccc2S1(=O)=O	-6%	7%
89	O=C(CN1CCN(c2ccccc2)CC1)Nc1nccs1	0%	.
90	NCc1csc(Nc2nncc3ccccc23)n1	-1%	4%
91	O=C(c1cccc(C(F)(F)F)c1)C1CCCN(C(=O)C2CCOCC2)C1 (stereo not given)	-24%	-12%
92	COc1ccccc1NS(=O)(=O)c1cc(C(=O)Nc2ccc(S(=O)(=O)Nc3onc(C)c3C)cc2)ccc1C	4%	-14%
93	CSc1ccc(/C=N/N2CCN(C)CC2)cc1	-18%	-12%
94	CNC(=O)COC(=O)c1cc(NC(=O)c2ccco2)c(OC)c(OC)c1	-9%	-14%
95	O=C(COC(=O)c1nc(Cl)ccc1Cl)Nc1ncc(Cl)cc1Cl	-14%	-12%
96	CCC(=O)N1c2ccccc2CC1C(=O)NCc1cc(Br)ccc1OC (stereo not given)	3%	-14%
97	Brc1ccccc1OCCCCn1cnc2ccccc21	-16%	i
98	COc1ccc(OCCCON2C(=O)c3ccccc3C2=O)cc1	-13%	-3%
99	O=C(c1cc(COc2ccc3ncccc3c2)on1)N1CCCC1	-28%	-27%
100	N#C/C(=C\c1cccn1S(=O)(=O)c1cccc([N+](=O)[O-])c1)S(=O)(=O)c1ccc(F)cc1	-10%	3%
101	O=C(Nc1ccon1)C(Sc1ccccc1)c1ccccc1 (stereo not given)	-12%	-11%
102	C#CCOCCOCCOCCNc1nc(N2CCN(C(=O)C(Cc3ccc(O)cc3)n3cc(C(N)CC(C)C)nn3)CC2)nc(N2CCN(C(=O)C(Cc3ccc(O)cc3)n3cc(C(N)C(C)CC)nn3)CC2)n1 (stereo not given)	-11%	i
103	Cc1ccc2c(C)c(C(=O)Nc3ccc(S(N)(=O)=O)cc3)oc2c1C	-28%	i
104	COCCCNC(=S)NNC(=O)Cn1nc(C)c(Br)c1C	-2%	-7%
105	CCN(C(=O)COC(=O)c1ccc2[nH]c3c(c2c1)CCCC3)C1CCS(=O)(=O)C1 (stereo not given)	-23%	-29%
106	Cc1ccc(C(=O)NCCc2nnc3ccc(SCC(=O)Nc4nnc(C)s4)nn23)cc1	-6%	i
